# Bioassay records as filed in PubChem.
# Sa RN4220 lethal = growth inhibition of S. aureus RN4220, primary screen, OD600; 16 h; inhibition, % (concentration not given with the values); hit rate 0.33% among 330,000;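 active means z-score of -3 or lower and OD600 up to 0.18 on both plates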;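 further: plate controls were untreated cells for no effect and reference antibiotic for full effect; stock transfer was 100 nL into about 80 µL; one replicate is shown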
# ugtP null kill = growth inhibition of ugtP-null S. aureus, primary screen, RN4220 ugtP deletion, OD600; 16 h; some inactives read as strong as hits; growth inhibition, % (test concentration not listed); hit rate 0.54% among 330,000;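 active means z-score under -3 and OD600 up to 0.15 on both plates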;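 further: plate controls were untreated wells for no effect and antibiotic for full effect; wells of about 80 µL received 100 nL stock; the first replicate is given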
# PrP UTR inh = inhibition of PrP 5' UTR reporter expression; cell-based PrP 5' UTR mRNA reporter, plate reader; hit rate 0.35% among 340,000; inhibition, % (concentration not given with the values);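 active means every replicate at 50% or more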;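 further: 0 = median of the neutral control wells; tested in H4 reporter cells; numbers are from one replicate; inactives centre near -14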
# Mtb hypoxia inh = PubChem AID 1159583; M. tuberculosis hypoxia-regulated fluorescent reporter, fluorescence; fluorescence inhibition, % (no concentration beside the values); hit rate 0.1% among 300,000;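 active means 35 to 45% if threefold the growth effect, above 45% if 1.5-fold the growth effect; inactive means the rest, general growth blockers included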;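 further: wells of about 50 µL received 100 nL stock; 0% = vehicle wells and 100% = reference inhibitor wells; whole bacteria with a GFP reporter of the hypoxia response; strong numbers were not always called active; many hits fall short of the cut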
# Bead autofluor = compound fluorescence in toxin protease inhibitor counterscreen; AID 624483; compound autofluorescence counterscreen, microsphere flow cytometry; stronger effect = higher value; fluorescence intensity (test concentration not listed); hit rate 3.1% among 360,000;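 active means at least 3 SD above the mean of all compounds, about 16000 in these data; inconclusive means too few beads counted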;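 further: 100 nL of 1 mM stock went into each well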
# BJeLR viability = MLPCN primary cell-based screen for lethality selective to Ras in HRASV12 cells; BJeLR (HRASV12) viability, CellTiter-Glo ATP luminescence, 48 h; reference of the scale not given here; inhibition, % (concentration not given with the values); hit rate 0.17% among 300,000; AID 1554, 2009;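 active means replicate mean above 50%; inconclusive means above 50% but judged a plate artefact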;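 further: 50 nL library stock added to about 25 µL; numbers are from one replicate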
# Mtb hypoxia inh growth = also measured in Mtb hypoxia inh; calls as there; growth inhibition, %; measured here: M. tuberculosis growth (absorbance);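 0% = vehicle and 100% = reference antibiotic; read after six days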
# * = called active by the depositor; ? = inconclusive; . = no result given.
SMILES,Sa RN4220 lethal,ugtP null kill,PrP UTR inh,Mtb hypoxia inh,Mtb hypoxia inh growth,Bead autofluor,BJeLR viability
O=S(=O)(NCC1CCCO1)c1ccc(-c2ccc(Cl)cc2)cc1 (stereo not drawn),12,5,-16,19,10,4723,.
C=C(C)C1CC=C(C)C(=NNC(=O)CCCNc2cccc(C)c2)C1 (stereo not drawn),9.1,-12,.,12,0,.,.
O=C(NCc1ccco1)/C(=C/c1ccc([N+](=O)[O-])cc1)NC(=O)c1ccco1,3.7,6,-11,6,2,4455,-10
O=C(Nc1ccc2oc(-c3cccnc3)nc2c1)c1ccc2c(c1)OCCO2,-2.1,-8,-29,20,25,2489,-2
Clc1ccc(CN2CCCCCCC2)cc1Cl,1.6,14,-14,13,0,2413,-2
O=C(COC(=O)/C=C/c1ccc(Cl)cc1)NCCc1ccccc1,-5.6,-10,-32,-4,5,2237,-2
COc1ccc(CCNC(=O)Cn2nc(C)c3c(C)n(-c4ccccc4)nc3c2=O)c(OC)c1,-4.1,4,-21,-8,-13,5922,2
NC(=S)NN=Cc1coc2c(ccc3ccccc32)c1=O,-6.1,5,.,4,-6,.,.
CC(C)(C)C(=O)N1CCN(CCN2C(=O)c3cccc4cccc(c34)C2=O)CC1,7.8,9,8,5,-3,3159,-15
CCOC(=O)C1=C(C)Nc2ccccc2N=C1N,5.0,4,-22,-8,6,3870,-17
CCOC(=O)c1c(C)[nH]c(C)c1S(=O)(=O)N(C)CC(=O)NCc1cccc(C)c1,-0.3,-8,-8,-1,7,6187,12
Cc1no[n+]([O-])c1COc1cccc(/C=C2\N=C(c3ccccc3)OC2=O)c1,-2.5,4,-7,3,6,2225,-4
CC(C)n1c(=S)[nH]c2ccccc2c1=O,4.6,-3,.,10,6,12676,4
COc1ccc(NC(=S)N(CCN(C)C)C(C)c2ccco2)cc1 (stereo not drawn),3.5,0,-5,7,6,1968,-10
Cc1ccc(C(=O)N2CCN(C3CCCCC3)CC2)s1,-2.4,-7,.,9,17,7796,-2
COCC(C)n1c(C)cc(C(=O)CSc2nnnn2C2CCCC2)c1C (stereo not drawn),5.8,9,31,6,4,8816,.
CN1C(=O)c2ccccc2C(C(=O)O)C1c1cccc(Cl)c1 (stereo not drawn),4.9,7,-6,-9,-6,2628,6
c1ccc(N=P(N2CCOCC2)(N2CCOCC2)N2CCOCC2)cc1,-3.6,1,-5,-3,11,8537,-2
O=C(CN1C(=O)C2CCCCN2C(=O)c2ccccc21)N1CCCc2ccccc21 (stereo not drawn),3.2,-4,-38,.,.,3835,1
Cc1coc(C)c1C(=O)CC1(O)C(=O)N(C)c2ccc(Cl)cc21 (stereo not drawn),5.9,0,-22,6,11,2134,-1
Cc1csc(NC(=O)c2cccc(Cn3nc(C)c(Br)c3C)c2)n1,1.8,-7,-30,15,1,7891,-8
CCOC(=O)c1sc(SCc2ccccc2)c2c1CC(C)(C)CC2=O,-3.4,7,-22,6,2,4170,-10
CS(=O)(=O)N(CC(=O)N/N=C/c1ccccc1C(=O)O)c1cccc(Cl)c1Cl,.,.,-18,.,.,4517,3
O=C1c2ccccc2C(=O)N1CN(C(=O)c1ccccc1[N+](=O)[O-])c1ccc(F)cc1,2.4,7,-10,-1,-2,2369,9
COc1cccc(CNC(=O)N2CCN(S(=O)(=O)c3ccc(C)cc3)CC2)c1,7.4,12,3,5,-6,3894,-10

# Overlap with the part before: 2 entries, then new ones.
SMILES,Sa RN4220 lethal,ugtP null kill,PrP UTR inh,Mtb hypoxia inh,Mtb hypoxia inh growth,Bead autofluor,BJeLR viability
O=C1c2ccccc2C(=O)N1CN(C(=O)c1ccccc1[N+](=O)[O-])c1ccc(F)cc1,2.4,7,-10,-1,-2,2369,9
COc1cccc(CNC(=O)N2CCN(S(=O)(=O)c3ccc(C)cc3)CC2)c1,7.4,12,3,5,-6,3894,-10
CCOc1ccc(CCNC(=O)COC(=O)COc2ccccc2C)cc1OCC,2.5,0,-8,-18,-2,?,-2
Cc1ccc(/C=C2/NC(=O)N(c3ccccc3)C2=O)o1,-3.7,-4,-37,-2,9,6173,-4
COCC(C)NC(=O)c1cc2cc(OC)ccc2[nH]1 (stereo not drawn),0.6,-1,-6,17,-3,5852,0
Cc1cc([N+](=O)[O-])cc2c1NC(=O)C2(O)N1CCCC(C)C1 (stereo not drawn),4.2,0,-8,12,15,4700,7
COC(=O)CSc1nnc(CNC(=O)c2cccc(C)c2)n1-c1ccccc1OC,1.2,4,-9,0,1,22455*,2
CCCCCN(C(=O)CCC(=O)OCC(=O)N1CCCCC1C)c1c(N)n(CCCC)c(=O)[nH]c1=O (stereo not drawn),2.4,2,-13,7,3,5816,4
Cc1cc(C)c(NC(N)=S)c(C)c1,2.3,-1,-19,-6,4,6202,1
CC(=O)OCC1=C(C(=O)OC(C)(C)C)N2C(=O)[C@@H](NC(=O)Cc3ccccc3)[C@H]2SC1,96*,94*,-22,-1,0,4025,.
CC(=O)N1c2ccc(S(=O)(=O)NCC3CCC(C(=O)NCc4ccc(C)cc4)CC3)cc2CC1C (stereo not drawn),0.0,-3,1,-7,10,6368,12
COc1ccc(S(=O)(=O)Nc2ccc3cn[nH]c3c2)cc1[N+](=O)[O-],-1.9,0,14,-1,-5,.,.
Cc1cccc(NC(=O)c2cc3c(n(-c4ccccc4)c2=O)CCCC3=O)n1,-3.9,-7,-22,-4,5,3082,4
Cn1c(=O)c2c(nc(CN3CCN(c4ccccc4)CC3)n2CCN2CCOCC2)n(C)c1=O,-1.3,1,.,1,0,.,3
O=C(Nc1ccccc1)N1CCn2c(nc3ccccc32)C1,3.4,9,-8,1,5,14619,-4
Cc1ccc2occ(/C=N/NC(N)=S)c(=O)c2c1,.,.,-1,.,.,10269,2
CCOCCOC(=O)C1=C(C)N(C)C(=O)NC1c1cc(Cl)c(O)c(OCC)c1 (stereo not drawn),-0.4,-5,-20,3,1,4515,-2
Cn1nnnc1SCC(=O)Nc1ccc(Oc2ccccc2)cc1,4.8,9,-3,-9,-4,6758,1
Nc1nc(-c2ccc3c(c2)OCCO3)cs1,6.9,9,-68,.,.,2816,6
CN1CCCCC1=NCCCn1cnc2c1c(=O)n(C)c(=O)n2C,5.8,11,-14,0,3,11504,-9
COc1ccc(S(=O)(=O)NCCCCCC(=O)O)cc1C(=O)O,2.7,2,-32,-6,5,4356,3
COc1ccc(CCNC(=O)c2c(N)n(CCN3CCOCC3)c3nc4ccccc4nc23)cc1OC,-2.3,-12,3,3,13,4354,-3
COc1cccc(NC(=O)CN(C)C(=O)c2ccc(S(=O)(=O)Nc3ccccc3C)cc2)c1,3.6,2,-12,6,-4,3518,.
O=C(Cc1ccc(S(=O)(=O)N2CCOCC2)s1)N1CCN(S(=O)(=O)c2cccc(F)c2)CC1,-0.7,0,3,8,2,4063,.
CC(Sc1nnc(-c2ccco2)n1-c1ccccc1)C(=O)NCC1CCCO1 (stereo not drawn),7.2,7,-18,3,-3,.,.
CCOC(=O)c1c(-c2ccc(OC)cc2)oc2ccc(OCC(N)=O)cc12,-4.0,-3,-11,6,0,3865,9
C#CCn1cnc2c(cnn2-c2ccc(C)c(C)c2)c1=O,7.3,2,-67,3,7,2645,-5
SMILES,Sa RN4220 lethal,ugtP null kill,PrP UTR inh,Mtb hypoxia inh,Mtb hypoxia inh growth,Bead autofluor,BJeLR viability
Cc1cc(=O)[nH]c(SCc2ccccc2)n1,2.1,6,-1,-6,3,2964,14
COc1cc(NC(=S)NCCN2CCOCC2)cc(OC)c1,2.6,7,12,3,3,2383,-3
CCOC(=O)Cn1nc(C)c(NC(=O)COc2ccc([N+](=O)[O-])cc2)c1C,1.7,5,-3,5,-3,4526,-10
COc1ccc(CCNc2oc(-c3ccc(OC)c(OC)c3)nc2C#N)cc1,5.4,23,-2,16,6,8750,1
CN1CCN(S(=O)(=O)c2cccc(C(=O)Nc3cc(C(F)(F)F)ccc3N3CCCC3)c2)CC1,0.8,7,-11,1,-3,5812,0
CCOC(=O)c1c(NC(=O)Cn2cnc([N+](=O)[O-])n2)sc2c1CCC(C)C2 (stereo not drawn),-1.0,33,-8,3,4,7086,-7
CCOC(=O)Cn1c(CN2CCN(C(c3ccccc3)c3ccccc3)CC2)nc2c1c(=O)n(C)c(=O)n2C,6.1,4,-8,2,-1,4602,11
CCOC(=O)c1c(C)oc2c1c(C(c1cccnc1)N1CCOCC1)c(O)c1ccccc12 (stereo not drawn),-2.4,-4,-48,14,12,2752,4
CCOC(=O)C1C2COc3ccc(Br)cc3C2N2C(=O)c3ccc(F)cc3NC(=O)[C@@]12C (stereo partly drawn),0.2,-2,.,3,13,.,.
COC(=O)CCN(C(=O)c1ccc(C)c([N+](=O)[O-])c1)c1ccccn1,4.6,0,-17,9,5,3226,-2
O=S(=O)(NCCSCc1ccc(Cl)cc1Cl)c1ccc2c(c1)OCCO2,-9.0,28,-24,.,.,2691,2
CC1CC(C)CN(S(=O)(=O)c2ccc3c(c2)CC(C)N3C(=O)C2CC2)C1 (stereo not drawn),2.9,-5,-3,-2,4,4613,-13
Cc1ccc2[nH]c(=O)c(CN(Cc3cccs3)S(=O)(=O)c3ccc4c(c3)OCCO4)cc2c1,5.1,7,-26,7,4,2594,13
CCCOc1ccc(C(=O)NNC(=S)NC(=O)c2ccccc2[N+](=O)[O-])cc1,42,25,-17,4,7,3051,-1
CCCCC[C@@H]1C=C(C(=O)O)[C@H](c2ccc(C#N)cc2)N1S(=O)(=O)c1ccc(C)cc1,13,-5,1,-1,4,3556,.
CCC(Oc1ccccc1)C(=O)Nc1nnc(S(=O)(=O)Nc2ccccc2)s1 (stereo not drawn),24,-11,-3,-1,7,4444,10
CC(=NNC(=O)Cc1c(F)cccc1Cl)c1cccnc1,-1.6,-5,.,-7,8,.,.
Cc1ccc(NC(=O)N2CCCC2C(=O)Nc2ccc(-n3cnnn3)c(C)c2)cc1 (stereo not drawn),-2.5,9,-1,.,.,4854,9
Cn1c2ccccc2c2c(C(=O)N3CCN(c4ccccc4)CC3)cn(C3CCCC3)c(=O)c21,-5.2,-1,-4,.,.,3099,3
Cc1ccc(C(=O)CSc2nc(-c3ccccc3)cc(=O)[nH]2)cc1,14,-2,-104,3,4,4550,-9
COC(=O)c1ccc(Sc2ccccc2NS(=O)(=O)c2ccc(C)cc2)nc1,15,-19,-35,3,3,4333,-3
CCCCNC(=O)CNC(=O)c1cccs1,6.0,-7,-25,7,2,11602,-2
Cc1onc(-c2c(F)cccc2Cl)c1-c1nnc(-c2ccc(C(F)(F)F)cc2)o1,-3.6,6,-30,2,-1,4306,1
CC1=CC(C)(C)n2c(O)c(N=NC(N)=S)c3c(C)c(C)cc1c32,7.4,2,1,-8,2,5815,-4
Cc1ccc(NC(=S)N(CCCN2CCOCC2)Cc2ccco2)cc1Cl,8.7,-3,-42,-2,1,10267,10
O=C(CSc1nc(=O)n(CCCN2CCOCC2)c2c1CCCC2)Nc1cccc([N+](=O)[O-])c1,4.2,3,-5,9,5,4447,18
O=C(O)C1=CCC(c2ccc(Cl)cc2)N(S(=O)(=O)c2ccc(Cl)cc2)C1c1ccc(F)cc1 (stereo not drawn),19,40,.,14,16,.,.
Cc1ccccc1S(=O)(=O)c1c(C)cc(-c2ccccc2)[nH]c1=O,7.4,5,-12,14,12,9603,-1
O=C(CN1CCN(C2CCCCC2)CC1)Nc1ccc(Br)cc1,0.5,-7,-26,-2,2,3430,24

# Among those listed so far, 9 contain an aryl thioether with sulfur outside any ring.
SMILES,Sa RN4220 lethal,ugtP null kill,PrP UTR inh,Mtb hypoxia inh,Mtb hypoxia inh growth,Bead autofluor,BJeLR viability
COCC(C)n1c(C)cc(C(=O)CSc2nnnn2C2CCCC2)c1C (stereo not drawn),5.8,9,31,6,4,8816,.
CCOC(=O)c1sc(SCc2ccccc2)c2c1CC(C)(C)CC2=O,-3.4,7,-22,6,2,4170,-10
COC(=O)CSc1nnc(CNC(=O)c2cccc(C)c2)n1-c1ccccc1OC,1.2,4,-9,0,1,22455*,2
Cn1nnnc1SCC(=O)Nc1ccc(Oc2ccccc2)cc1,4.8,9,-3,-9,-4,6758,1
CC(Sc1nnc(-c2ccco2)n1-c1ccccc1)C(=O)NCC1CCCO1 (stereo not drawn),7.2,7,-18,3,-3,.,.
Cc1cc(=O)[nH]c(SCc2ccccc2)n1,2.1,6,-1,-6,3,2964,14
Cc1ccc(C(=O)CSc2nc(-c3ccccc3)cc(=O)[nH]2)cc1,14,-2,-104,3,4,4550,-9
COC(=O)c1ccc(Sc2ccccc2NS(=O)(=O)c2ccc(C)cc2)nc1,15,-19,-35,3,3,4333,-3
O=C(CSc1nc(=O)n(CCCN2CCOCC2)c2c1CCCC2)Nc1cccc([N+](=O)[O-])c1,4.2,3,-5,9,5,4447,18
